# Compound activity: PubChem, several laboratories
# Sa RN4220 lethal – kills Staphylococcus aureus RN4220; S. aureus RN4220 growth, OD600, 16 h; hit rate 0.33% among 330,000; AID 1259311; inhibition, % (concentration not given with the values);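 active = z-score of -3 or lower and OD600 up to 0.18 on both plates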;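 also: plate controls were untreated cells for no effect and reference antibiotic for full effect; stock transfer was 100 nL into about 80 µL; one replicate is shown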
# Mtb hypoxia inh – Mtb hypoxia fluorescent reporter inhibition; hit rate 0.1% among 300,000; fluorescence inhibition, % (concentration not given with the values); M. tuberculosis hypoxia-regulated fluorescent reporter, fluorescence; AID 1159583;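 active = 35 to 45% if threefold the growth effect, above 45% if 1.5-fold the growth effect; inactive = the rest, general growth blockers included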;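 also: wells of about 50 µL received 100 nL stock; 0% = vehicle wells and 100% = reference inhibitor wells; whole bacteria with a GFP reporter of the hypoxia response; strong numbers were not always called active; many hits fall short of the cut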
# Autofluor counter – counter-screen for toxin protease inhibitors: compound fluorescence. compound autofluorescence counterscreen, microsphere flow cytometry; hits give high values. fluorescence intensity (no concentration beside the values). hit rate 3.1% among 360,000;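 active = at least 3 SD above the mean of all compounds, about 16000 in these data; inconclusive = too few beads counted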;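 also: 100 nL of 1 mM stock went into each well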
# ugtP null kill – growth inhibition of S. aureus ugtP deletion strain; S. aureus RN4220 ugtP deletion, OD600 growth, 16 h; some inactives read as strong as hits; growth inhibition, % (test concentration not listed); hit rate 0.54% among 330,000;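 active = z-score under -3 and OD600 up to 0.15 on both plates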;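 also: plate controls were untreated wells for no effect and antibiotic for full effect; wells of about 80 µL received 100 nL stock; the first replicate is given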
# BJeLR lethal – kills HRASV12-expressing BJeLR cells; BJeLR (HRASV12) viability, CellTiter-Glo ATP luminescence, 48 h; reference of the scale not given here; inhibition, % (test concentration not listed); hit rate 0.17% among 300,000; AID 1554;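 active = replicate mean above 50%; inconclusive = above 50% but judged a plate artefact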;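 also: 50 nL library stock added to about 25 µL; numbers are from one replicate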
# PrP 5UTR inh – inhibition of PrP 5' UTR reporter expression. inhibition, % (no concentration beside the values). cell-based PrP 5' UTR mRNA reporter, plate reader. hit rate 0.35% among 340,000. AID 488862;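 active = every replicate at 50% or more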;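 also: 0 = median of the neutral control wells; tested in H4 reporter cells; numbers are from one replicate; inactives centre near -14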
# Mtb hypoxia inh growth – recorded beside Mtb hypoxia inh, whose call it bears; growth inhibition, %; measured here: M. tuberculosis growth (absorbance);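 0% = vehicle and 100% = reference antibiotic; read after six days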
# * marks the source's active call; other numbers are inactive results; ? = inconclusive; / = no result given; & = joins results of further samples.
# A first look:
SMILES,Sa RN4220 lethal,Mtb hypoxia inh,Mtb hypoxia inh growth,Autofluor counter,ugtP null kill,BJeLR lethal,PrP 5UTR inh
Cc1ccc(C(=O)C[n+]2cccc3ccccc32)cc1,-0.1,/,/,5828,15,0,-24
Cc1cc(Nc2ccccc2F)n2nc(C)nc2n1,-0.2,/,/,4414,-1,-9,-18
Fc1ccc(C2c3[nH]c4ccccc4c3CCN2Cc2cccn2-c2ncccn2)cc1 (stereo unspecified),2.2,1,7,3117,-12,21,-40
CC(=O)c1cc(NC(=O)c2ccc([N+](=O)[O-])cc2)c(=O)oc1C,1.7,5,-1,4876,9,-2,-15

# Results, repeating the preview:
SMILES,Sa RN4220 lethal,Mtb hypoxia inh,Mtb hypoxia inh growth,Autofluor counter,ugtP null kill,BJeLR lethal,PrP 5UTR inh
Cc1ccc(C(=O)C[n+]2cccc3ccccc32)cc1,-0.1,/,/,5828,15,0,-24
Cc1cc(Nc2ccccc2F)n2nc(C)nc2n1,-0.2,/,/,4414,-1,-9,-18
Fc1ccc(C2c3[nH]c4ccccc4c3CCN2Cc2cccn2-c2ncccn2)cc1 (stereo unspecified),2.2,1,7,3117,-12,21,-40
CC(=O)c1cc(NC(=O)c2ccc([N+](=O)[O-])cc2)c(=O)oc1C,1.7,5,-1,4876,9,-2,-15
CN(CC(=O)NC(=O)NC1CCCCC1)Cc1ccccc1,6.5,-2,2,3981,9,/,-34
COc1cccc(SCc2noc(C(=O)NCC3CCCO3)c2C(=O)O)c1 (stereo unspecified),8.8,7,7,3868,-10,-2,1
Cc1cc(N2C(=O)CC(C(C)c3ccccc3)C2=O)no1 (stereo unspecified),2.5,/,/,2589,-3,5,-13
CN(CCOc1ccccc1)CC(=O)Nc1ccc(Cl)c(S(=O)(=O)N(C)C)c1,7.0,6,-2,3874,0,1,-24
O=C(COc1ccccc1)NCC(=O)NN=Cc1ccccc1,2.0,2,11,/,-4,/,/
O=C(COc1ccc(Cl)cc1Cl)N/N=C/C1CC=CCC1 (stereo unspecified),/,/,/,5943,/,14,-26
O=S(=O)(NCC1CCN(c2ccc(S(=O)(=O)N3CCOCC3)cc2)CC1)c1ccccc1,2.6,-3,-4,3822,10,-11,-10
CCCOc1ccc(C(=O)N2CC3(CC(c4cccc(NC(=O)[C@@H]5CCC(=O)N5)c4)=NO3)C[C@H]2C(=O)NC2(C(N)=O)CC2)cc1 (stereo partly specified),-11,12,4,3446,-6,-4,-23
NC(=O)c1cc(S(=O)(=O)N2CCCC2)ccc1OCCOc1ccccc1,0.4,11,-7,/,5,/,1
COC(=O)c1cc(=O)n(CCc2ccc(OC)cc2)c(=Nc2ccc(F)c(Cl)c2)s1,-9.0,6,3,4714,17,-11,-9
CCn1c(-c2ccc(OC)c(OC)c2)n[nH]c1=S,2.9,/,/,2449,6,6,3
COCCn1c(-c2cccs2)csc1=Nc1cccnc1,6.4,4,11,4596,-1,-3,-9
COCCOc1ccc(C(F)(F)F)cc1NC(=O)CN1C(=O)NC(C)(c2ccc3c(c2)OCO3)C1=O (stereo unspecified),0.9,0,9,5824,-13,1,-4
COc1ccc(NC(=O)COC(=O)C2CCN(S(=O)(=O)c3ccccc3)CC2)cc1Cl,1.2,-2,-7,6016,-2,6,-7
COc1ccc(NC(=O)NC2(C(=O)N3CCCC(C)C3)CCCCC2)cc1 (stereo unspecified),0.6,-10,-5,6729,8,5,-25
CN(C(=O)COC(=O)C1COc2ccccc2O1)c1c(N)n(Cc2ccccc2)c(=O)[nH]c1=O (stereo unspecified),-2.6,0,-1,5720,3,8,-17
COc1ccc(CNC(=O)N2CCN(c3cccc(C)c3C)CC2)cc1OC,-0.6,6,9,5835,13,-10,-8
COc1ccc(CCC(=O)OCC(=O)NCc2ccc3c(c2)OCO3)cc1,2.5,3,-6,8330,5,/,-62
CCOc1cc(C=NNC(=O)c2nn(C)cc2Br)ccc1OCc1ccccc1Cl,0.5,-7,-11,/,20,/,/
Cc1nn(-c2ccccc2)c(C)c1NC(=O)COC(=O)c1ccccc1,4.7,-8,4,3994,5,/,-24
CC/C(=N\NC(=O)c1ccccc1O)c1c(O)n(C2CCCCC2)c(=O)[nH]c1=O,/,/,/,5411,/,9,-31
CC(Oc1ccc(F)cc1)C(=O)Nc1ccccc1C(=O)NC1CC1 (stereo unspecified),0.7,-8,11,?,2,-3,4
CC(OC(=O)CN1C(=O)NC2(CCCC2)C1=O)C(=O)Nc1cccc(Cl)c1Cl (stereo unspecified),2.8,0,3,?,7,3,-11
CC(C)c1ccc(S(=O)(=O)Nc2ccc3c(c2)OCO3)cc1,4.4,1,2,/,-5,/,3
Cc1oc2c(c(C)cc3oc(=O)c(CC(=O)N[C@@H](CCCNC(N)=O)C(=O)O)c(C)c32)c1C,5.0,-7,9,4273,5,-8,-16
Cc1ccc(N2CCN(C3=NC(=O)/C(=C\c4cccs4)S3)CC2)cc1,-5.0,/,/,2207,-19,0,-8

# Results in BJeLR lethal, ugtP null kill and PrP 5UTR inh, for 3 of the compounds above:
Compound | BJeLR lethal | ugtP null kill | PrP 5UTR inh
COc1ccc(CNC(=O)N2CCN(c3cccc(C)c3C)CC2)cc1OC | -10 | 13 | -8
COc1ccc(NC(=O)COC(=O)C2CCN(S(=O)(=O)c3ccccc3)CC2)cc1Cl | 6 | -2 | -7
COCCn1c(-c2cccs2)csc1=Nc1cccnc1 | -3 | -1 | -9

# Additional results follow.
SMILES,Sa RN4220 lethal,Mtb hypoxia inh,Mtb hypoxia inh growth,Autofluor counter,ugtP null kill,BJeLR lethal,PrP 5UTR inh
CC1(C)C(=O)Nc2ccccc2N1C(=O)COC(=O)c1cccc(O)c1,7.0,11,6,/,3,/,-15
O=C(Nc1ccc(NC(=O)c2cccs2)cn1)c1ccccc1,-5.0,14,3,2508,1,6,-40
O=C(O)c1cc(S(=O)(=O)N2CCCCC2)ccc1N1CCOCC1,0.8,2,12,8871,3,/,-15
O=C1C2C3c4ccccc4C(c4ccccc43)[C@@H]2c2nc3ccccc3n21 (stereo partly specified),-6.0,/,/,2488,-14,-2,-10
O=C(CCNc1cccc(Cl)c1)c1ccco1,7.4,16,14,7710,13,-1,/
Cc1cnc(C(=O)N2CCN(c3ccc(C(F)(F)F)cn3)CC2)cn1,2.8,3,13,4574,8,-10,-12
CSCCC(NC(=O)c1ccc(Cl)cc1)C(=O)O (stereo unspecified),5.7,5,13,3112,4,6,-34
Cc1c(NC(=O)c2c(NC(=O)CNC3CC3)sc3c2CCCC3)c(=O)n(-c2ccccc2)n1C,3.6,12,12,8904,15,-8,-18
Cc1ccnc(NC(=O)/C=C/c2ccccc2Cl)c1,0.1,8,13,2725,9,1,-8
CCOCCn1c(CN2CCN(c3ccc(OC)cc3)CC2)nc2c1c(=O)n(C)c(=O)n2C,3.0,2,4,7465,8,-7,-47
Cc1ccc(-n2ncc3c(=O)[nH]c(SCC(=O)N4CCCCC4)nc32)cc1,11,9,13,6353,-1,-13,-20
O=C(COC(=O)c1ccccc1C(=O)c1ccccc1)Nc1ccc(SC(F)F)cc1,5.2,-3,4,2025,-5,-14,-12
COc1cc2c(cc1OC)C(c1cc(OC)c(OC)c(OC)c1)NCC2 (stereo unspecified),0.6,2,-5,3803,0,-2,-85&-34
Cc1ccccc1C(=O)NC1CCN(C(=O)NC2CCCCC2)CC1,4.4,1,2,6002,4,-3,-8
CN(Cc1ccccc1)C(=O)c1ccccc1NC(=O)c1ccccc1,5.1,11,9,22709*,1,-3,-13
Cc1cccnc1Nc1nc(-c2ccccc2)cs1,-2.4,17,6,3981,25,11,-84
COc1ccccc1N(CC(=O)NN=Cc1c(O)ccc2ccccc12)S(C)(=O)=O,6.9,-1,0,/,9,/,/
O=C(CN(C(=O)CCC(=O)Nc1nccs1)c1ccc(F)c(Cl)c1)NCC1CCCO1 (stereo unspecified),1.2,9,3,5037,11,-6,-21
CC(C)Oc1ccc(S(=O)(=O)N2CCOCC2)cc1NC(=O)C(C)Oc1ccc(F)cc1 (stereo unspecified),4.6,0,-2,?,-4,0,-14
Cc1cccc(OCCSc2cc(C)nc(N)n2)c1,-1.1,6,5,/,-3,5,-17
NC(=O)[C@H]1CC2(CC(c3cccc(NC(=O)[C@H]4CCC(=O)N4)c3)=NO2)CN1C(=O)c1cc([N+](=O)[O-])cc([N+](=O)[O-])c1 (stereo partly specified),/,/,/,3461,/,4,-11
CCOC(=O)Nc1ccc2nc(Sc3ccc(Cl)cc3)sc2c1,/,/,/,3195,/,31,-23
CCCC(c1nnnn1Cc1ccc(F)cc1)N1CCN(C2CCCCC2)CC1 (stereo unspecified),3.0,/,/,4808,0,2,-10
Cc1nc2ccccn2c1C(=O)NNC(=O)Nc1cccc(C(F)(F)F)c1,4.0,-6,-5,6175,11,7,-15
CC(C)CCNC(=O)COc1ccc(N(C)S(=O)(=O)c2ccc(F)cc2)cc1,2.2,12,5,4355,8,7,-5
COc1cc(NC(=O)c2cccc(NC3=NC4CS(=O)(=O)CC4S3)c2)cc(OC)c1OC (stereo unspecified),7.7,-3,-2,6485,3,0,-14
COc1ccc(/C(C)=N/OC/C(O)=C(\C#N)c2nc3ccccc3[nH]2)cc1,/,/,/,9599,/,0,-5
CC1(c2nnc(-c3ccncc3)o2)CC(c2cccc(Cl)c2)=NO1 (stereo unspecified),5.3,24,30,3732,4,9,-10
CS(=O)(=O)Nc1nnc(SCC(=O)N(c2ccccc2)c2ccccc2)s1,3.9,-3,7,2049,4,-10,-14
CCOc1ccc(N(C)S(=O)(=O)c2ccc3[nH]cc(C(=O)NCC(OC)OC)c(=O)c3c2)cc1,2.1,0,2,3745,3,3,-125
COc1ccc(CCNC(=O)c2ccc(-c3cccc([N+](=O)[O-])c3)o2)cc1OC,-0.7,6,11,4621,-4,-6,-12
COC(=O)c1scc(C)c1-n1ccc(C(=O)C(=O)N(C)C)c1,3.5,3,-2,2710,3,-4,-18
CCOC(=O)c1c(S(=O)(=O)NCc2cccs2)c(C)n(C)c1C,2.2,1,5,5416,6,2,-13
O=C(CCN1C(=O)c2ccccc2C1=O)Nc1ccc(F)cc1F,4.8,1,8,10888,3,-12,/

# Exported with two lines to a compound: part of the list above.
# Each structure is followed by: Sa RN4220 lethal	Mtb hypoxia inh	Mtb hypoxia inh growth	Autofluor counter	ugtP null kill	BJeLR lethal	PrP 5UTR inh
> CCOC(=O)c1c(S(=O)(=O)NCc2cccs2)c(C)n(C)c1C
  2.2	1	5	5416	6	2	-13
> O=C(CCN1C(=O)c2ccccc2C1=O)Nc1ccc(F)cc1F
  4.8	1	8	10888	3	-12	/

# Random excerpt: three entries already listed
SMILES,Sa RN4220 lethal,Mtb hypoxia inh,Mtb hypoxia inh growth,Autofluor counter,ugtP null kill,BJeLR lethal,PrP 5UTR inh
NC(=O)[C@H]1CC2(CC(c3cccc(NC(=O)[C@H]4CCC(=O)N4)c3)=NO2)CN1C(=O)c1cc([N+](=O)[O-])cc([N+](=O)[O-])c1 (stereo partly specified),/,/,/,3461,/,4,-11
CCOC(=O)Nc1ccc2nc(Sc3ccc(Cl)cc3)sc2c1,/,/,/,3195,/,31,-23
CCn1c(-c2ccc(OC)c(OC)c2)n[nH]c1=S,2.9,/,/,2449,6,6,3
